H5N1 antiviral: MDCK cell protection from H5N1 avian flu. actives 0.07% (n = 96,000). inhibition, % at 50 µM. cytopathic effect, luminescence, 72 h; active compounds read high; no value below 0 was filed and about half of the inactive calls have no number; reference of the scale not given here; in the data active = inhibition above about 25%
* hit, by the source's call. Some of the compounds tested; the hit share may differ from the screen's.

Screening CN(C)c1ccc(NC2=C([N+](=O)[O-])CS(=O)(=O)C2)cc1 returned H5N1 antiviral inactive.
Screening COc1ccc(N(CC(=O)O)S(=O)(=O)c2ccc(OC)c(OC)c2)cc1 returned H5N1 antiviral 0.1.
CCN1C(=O)/C(=C\N2CCCCCC2)SC1=S was read as H5N1 antiviral 3.3.
For CCOC(=O)C1CCN(CC(=O)Nc2c(C(=O)OC)[nH]c3ccccc23)CC1 the results were H5N1 antiviral 1.3.
`CC(C)(C)NC(=O)c1cc(F)c(F)cc1Cl` gave H5N1 antiviral 0.6.
For C=CCNC(=S)/N=c1\sccn1C the results were H5N1 antiviral 0.3.
`Oc1csc(Cc2nc(-c3ccc4ccccc4c3)cs2)n1` gave H5N1 antiviral 1.6.
For Cc1c(NC(=O)CSc2cccc3cccnc23)c(=O)n(-c2ccccc2)n1C the results were H5N1 antiviral 0.4.
For COc1ccc2c(CC(=O)Nc3nnc(C4CC4)s3)coc2c1 the results were H5N1 antiviral 0.3.
For O=C(N/N=C/c1ccco1)c1ccccn1 the results were H5N1 antiviral 5.2.
For CCN(CC)S(=O)(=O)c1ccc(NC(=O)c2ccc(NS(C)(=O)=O)cc2)cc1 the results were H5N1 antiviral 0.8.
`COc1ccccc1N(C)S(=O)(=O)c1ccc(C(=O)OCC(=O)NCc2ccco2)cc1` gave H5N1 antiviral 0.8.
Screening CNC(=O)Cn1ncc2c(C)n(Cc3ccc(C)cc3)c(C)c2c1=O returned H5N1 antiviral 1.4.
Screening O=c1c2ccccc2sc2nc(C3CCCCC3)n(Cc3ccco3)c(=O)c12 returned H5N1 antiviral 1.4.
CC(C)(C)c1cc(CN(CCO)CCO)cc(C(C)(C)C)c1O was read as H5N1 antiviral 0.1.
`O=C(c1cc2c(s1)CCCC2)N1CCN(C(=O)C2CCCO2)CC1` (configuration not stated) gave H5N1 antiviral 1.4.
Screening O=C(CNC(=O)c1ccc(Br)cc1)NCCc1nc2ccccc2[nH]1 returned H5N1 antiviral 0.7.
COc1ccc(OC)c(Nc2cc(C)nc3ccccc23)c1 was read as H5N1 antiviral inactive.
`CCOC(=O)N1CCN(Cc2nc3c(c(=O)[nH]c(=O)n3C)n2Cc2ccccc2C)CC1` gave H5N1 antiviral 1.4.
For C[N+]1(CC(=O)Nc2ccccc2Cl)CCN(C(=O)c2cccs2)CC1 the results were H5N1 antiviral 0.7.

Among those listed so far, 3 contain a halogen.
`CC(C)(C)NC(=O)c1cc(F)c(F)cc1Cl` gave H5N1 antiviral 0.6.
Screening O=C(CNC(=O)c1ccc(Br)cc1)NCCc1nc2ccccc2[nH]1 returned H5N1 antiviral 0.7.
For C[N+]1(CC(=O)Nc2ccccc2Cl)CCN(C(=O)c2cccs2)CC1 the results were H5N1 antiviral 0.7.

Remaining list, next part
Cc1ccc(-n2ncc3c(N4CCC5(CC4)OCCO5)ncnc32)c(C)c1 was read as H5N1 antiviral 1.0.
Screening CCCc1[nH]nc2c1C(c1ccc(OC)cc1OC)C(C#N)=C(N)O2 (configuration not stated) returned H5N1 antiviral inactive.
For C[N+]12CCC(CC1)C(C#N)(N1CCOCC1)C2 (configuration not stated) the results were H5N1 antiviral inactive.
For O=S(=O)(c1ccc(S(=O)(=O)n2cnc3ccccc32)cc1)N1CCCCCC1 the results were H5N1 antiviral 0.1.
Cn1c2c(c(=O)n(C)c1=O)C(NC(=O)C(C)(C)C)(C(F)(F)F)C(=O)N2 (configuration not stated) was read as H5N1 antiviral 0.4.
`C(=N\c1nc2ccccc2n1CCN1CCOCC1)/c1cccs1` gave H5N1 antiviral inactive.
For COc1ccc(OCCNS(=O)(=O)c2ccc3oc4ccccc4c3c2)cc1 the results were H5N1 antiviral inactive.
For CCOC(=O)C1=C(C)NC(=O)NC1c1ccc2c(c1)OCO2 (configuration not stated) the results were H5N1 antiviral 1.7.
COc1ccc(C2=Nn3c(nnc3-c3ccco3)SC2)cc1 was read as H5N1 antiviral 3.5.
`CCc1ccc(/C=C2\CN(CC)Cc3c2nc2ccccc2c3C(=O)O)cc1` gave H5N1 antiviral inactive.
Cc1ccc(N(CC(=O)Nc2cc(C)cc(C)c2)S(=O)(=O)c2cccc3nonc23)cc1 was read as H5N1 antiviral 1.1.
For Cc1ccc(C(C(=O)NC2CCCCC2)N(Cc2ccco2)C(=O)Cc2c[nH]c3ccccc23)o1 (configuration not stated) the results were H5N1 antiviral 0.8.
For FC(F)(F)c1cccc(NC(=S)N2CCN(c3cccc(C(F)(F)F)c3)CC2)c1 the results were H5N1 antiviral 0.9.
Screening COc1ccc(-c2nc(CSCC(=O)NCc3ccc4c(c3)OCO4)c(C)o2)cc1 returned H5N1 antiviral 0.8.
For COc1ccc(CNC(=O)CN(Cc2ccc(Cl)cc2)S(=O)(=O)c2ccccc2)cc1 the results were H5N1 antiviral inactive.
CC(=O)CSc1nc(N)c(C#N)c(-c2cccs2)c1C#N was read as H5N1 antiviral 0.9.
Screening COC(=O)Nc1ccc(S(=O)(=O)Nc2ccccc2F)cc1 returned H5N1 antiviral inactive.
For S=c1nc(-c2ccccc2)n(CCCN2CCOCC2)c2c1CCCC2 the results were H5N1 antiviral inactive.
For CCOC(=O)CNC(=O)CSP(=S)(OCC)OCC the results were H5N1 antiviral inactive.
For Cc1cccc2cc(C#N)c(NCCNC(=S)NCCCN3CCOCC3)nc12 the results were H5N1 antiviral inactive.

Among those listed so far, these have a cyano group.
Screening CCCc1[nH]nc2c1C(c1ccc(OC)cc1OC)C(C#N)=C(N)O2 (configuration not stated) returned H5N1 antiviral inactive.
For C[N+]12CCC(CC1)C(C#N)(N1CCOCC1)C2 (configuration not stated) the results were H5N1 antiviral inactive.
CC(=O)CSc1nc(N)c(C#N)c(-c2cccs2)c1C#N was read as H5N1 antiviral 0.9.
For Cc1cccc2cc(C#N)c(NCCNC(=S)NCCCN3CCOCC3)nc12 the results were H5N1 antiviral inactive.

Of the compounds above, these have a COOH group.
Screening COc1ccc(N(CC(=O)O)S(=O)(=O)c2ccc(OC)c(OC)c2)cc1 returned H5N1 antiviral 0.1.
`CCc1ccc(/C=C2\CN(CC)Cc3c2nc2ccccc2c3C(=O)O)cc1` gave H5N1 antiviral inactive.

More compounds.
For CN(C)CCNC(=S)Nc1ccc(Cl)cc1 the results were H5N1 antiviral inactive.
CCCCC(=O)NNC(=S)NC(=O)c1cccc([N+](=O)[O-])c1 was read as H5N1 antiviral 4.1.
`CC(C)(C)c1cn(-c2ccc(Cl)cc2)c(=S)[nH]1` gave H5N1 antiviral inactive.
Screening CCN(CC)CCn1c2ccccc2c2cnc(N=CN(C)C)c(C#N)c21 returned H5N1 antiviral 3.8.
For O=C(c1ccco1)N1CCN(c2cc(=O)n(-c3ccc(Cl)cc3)c(=O)[nH]2)CC1 the results were H5N1 antiviral 0.2.
CCCc1nc2ccccc2c(=O)n1N was read as H5N1 antiviral inactive.
For Cc1cc(NC(=O)C2C3C(=O)N(Cc4ccc(Cl)cc4)C(C(=O)NC4CCCCC4)C34C=CC2(C)O4)no1 (configuration not stated) the results were H5N1 antiviral inactive.
Cc1ccc(C(=O)Nc2ccc3c(c2)OCO3)o1 was read as H5N1 antiviral inactive.
For Cc1ccccc1OCC(=O)Nc1ccc(N2CCN(S(C)(=O)=O)CC2)cc1 the results were H5N1 antiviral 0.1.
CCC(C)NCCOCCOc1ccc(C)cc1Br (configuration not stated) was read as H5N1 antiviral inactive.
Fc1ccc(CSc2nc3ncccc3[nH]2)cc1 was read as H5N1 antiviral inactive.
Cn1c(C(=O)NCCCN2CCCCC2)cc2sccc21 was read as H5N1 antiviral inactive.
`Cc1n[nH]c(=O)nc1NCCN(C)C` gave H5N1 antiviral inactive.
`CCOC(=O)c1c(NC(=O)Cn2nc(C(F)F)cc2C(F)F)sc(C)c1C` gave H5N1 antiviral inactive.
Cc1ccc(-n2c(C)nc3c(cnn3-c3ccc(F)cc3)c2=O)cc1C was read as H5N1 antiviral inactive.
Screening COc1ccc(N2C(=O)C3C(C2=O)C2C=CC3C23CC3)c(OC)c1 (configuration not stated) returned H5N1 antiviral inactive.
For Cc1c(C(=O)NCCSCc2c(Cl)cccc2Cl)cccc1[N+](=O)[O-] the results were H5N1 antiviral 1.3.
Screening CCCCc1ccc2[nH]cc(CCN)c2c1 returned H5N1 antiviral inactive.
For COc1ccc(CC(=O)Nc2ccc(-c3nc4cc(C)ccc4o3)c(O)c2)cc1OC the results were H5N1 antiviral inactive.
For O=S(=O)(N1CCCCC1)N1CCN(c2ccccc2F)CC1 the results were H5N1 antiviral 0.0.
CCOC(=O)C(C)Oc1cccc2c(=O)n(CC(=O)NCc3ccco3)ccc12 (configuration not stated) was read as H5N1 antiviral 2.2.
Cc1cc2nn(-c3cccc4ccccc34)nc2cc1NC(=O)c1cccs1 was read as H5N1 antiviral 0.5.
`COc1ccc(OC)c(C2=NOC(C(=O)N3CCCc4ccccc43)C2)c1` (configuration not stated) gave H5N1 antiviral inactive.
For O=C(NCc1cccnc1)C1CC(c2ccc(F)cc2)=NO1 (configuration not stated) the results were H5N1 antiviral inactive.
COc1cccc(NC(=O)CCc2nc(-c3ccccc3F)no2)c1 was read as H5N1 antiviral inactive.
`O=C(NCCCN1CCOCC1)c1csc2c1CCCC2` gave H5N1 antiviral inactive.
CC(C)OCCCNC(=O)CCSc1ccc(Cl)cc1 was read as H5N1 antiviral inactive.
CCOC(=O)C1CCN(Cc2oc(CO)cc(=O)c2O)CC1 was read as H5N1 antiviral 0.3.
Screening COc1ccc(S(=O)(=O)N(C)CC(=O)Nc2ccccc2C(F)(F)F)cc1OC returned H5N1 antiviral inactive.
`Cc1ccccc1Nc1nc(N)nc(CSCc2c(C)noc2C)n1` gave H5N1 antiviral inactive.
For Cc1cc(C(=O)OCC(=O)Nc2ccc(S(=O)(=O)N3CCOCC3)cc2)c(C)o1 the results were H5N1 antiviral inactive.
For COc1ccc2cc(C3(C)NC(=O)NC3=O)ccc2c1 (configuration not stated) the results were H5N1 antiviral inactive.
C=CCNCC(=O)NN=C(c1ccccc1)c1ccccc1 was read as H5N1 antiviral 3.6.
C=CCN(CC=C)S(=O)(=O)c1ccc(F)cc1 was read as H5N1 antiviral inactive.
Screening Nc1c(C(=O)NCCc2ccccc2)c2nc3ccccc3nc2n1CCN1CCOCC1 returned H5N1 antiviral inactive.
`O=C1NCCN1C(=O)c1ccco1` gave H5N1 antiviral 0.4.
Screening CCn1c(COc2cccc(C)c2C)nnc1SCC(=O)N1CCN(c2ccc(OC)cc2)CC1 returned H5N1 antiviral 0.2.
`COc1ccc(Oc2nc(C)cc(C)c2S(C)(=O)=O)cc1` gave H5N1 antiviral inactive.
Screening CCOCCCNC(=S)NCCCNc1nc2cc3c(cc2cc1C#N)OCO3 returned H5N1 antiviral 0.1.
O=S(=O)(Nc1ccc2c(c1)OCCO2)c1ccc(Br)s1 was read as H5N1 antiviral inactive.

A portion taken from the entries so far, as a working copy:
CCOC(=O)C(C)Oc1cccc2c(=O)n(CC(=O)NCc3ccco3)ccc12 (configuration not stated) was read as H5N1 antiviral 2.2.
Cc1cc2nn(-c3cccc4ccccc34)nc2cc1NC(=O)c1cccs1 was read as H5N1 antiviral 0.5.
`COc1ccc(OC)c(C2=NOC(C(=O)N3CCCc4ccccc43)C2)c1` (configuration not stated) gave H5N1 antiviral inactive.

Further results.
`CC(Oc1ccc(Cl)cc1Cl)C(=O)Nc1ccc(S(=O)(=O)Nc2cnc3ccccc3n2)cc1` (configuration not stated) gave H5N1 antiviral 0.3.
For CCOC(=O)C1=NNC2(c3ccc(Cl)cc3)C(=O)N(c3cc(C)cc(C)c3)C(=O)C12 (configuration not stated) the results were H5N1 antiviral 0.3.
Screening Cc1cc(C)n2c(SCC(=O)N(C)C3CCS(=O)(=O)C3)nnc2n1 (configuration not stated) returned H5N1 antiviral 1.1.
For COc1cc(NC(=O)c2ccc(S(=O)(=O)N(C)C)cc2)cc(OC)c1OC the results were H5N1 antiviral inactive.
Screening CC1(C)OC(=O)C(C(c2ccccc2)C(C#N)C(N)=O)=C(O)O1 (configuration not stated) returned H5N1 antiviral 1.2.
`O=C(Cn1cc2c(n1)CCCC2)NCCc1ccccc1` gave H5N1 antiviral inactive.
Screening CC(CCc1ccccc1)NC(=O)C1CCN(C(=O)c2sccc2-n2cccc2)CC1 (configuration not stated) returned H5N1 antiviral 0.5.
For CCOC(=O)N1CCN(C2=Nc3cccc4cccc2c34)CC1 the results were H5N1 antiviral inactive.
For COC(=O)c1nc2n(n1)C(c1ccc(OC)c(OC)c1OC)C1=C(CCCC1=O)N2 (configuration not stated) the results were H5N1 antiviral 0.3.
For O=C(O)c1c[nH]c2ccc(S(=O)(=O)N3CCOCC3)cc12 the results were H5N1 antiviral 0.9.
`CC(=O)Nc1c(-c2ccccc2)nc2ncccn12` gave H5N1 antiviral 1.0.
Screening N#CCCN(Cc1cccnc1)C(=O)Nc1ccc(Cl)c(Cl)c1 returned H5N1 antiviral inactive.
For CCOC(=O)C(CC)(CC)C(=O)/C=C/c1ccc(Br)cc1 the results were H5N1 antiviral 2.6.
`CCOC(=O)c1c(NC(=O)c2ccco2)n(C2CCCCC2)c2nc3ccccc3nc12` gave H5N1 antiviral inactive.
`COc1ccccc1OCC(=O)N/N=C1\CCc2ccccc21` gave H5N1 antiviral inactive.
C#CC(=O)N(c1cccc(OC)c1)C(C(=O)NC1CCCC1)c1cccs1 (configuration not stated) was read as H5N1 antiviral inactive.
Screening CSCC[C@@H](C(=O)NCc1cccs1)N1Cc2ccccc2C1=O returned H5N1 antiviral 2.5.
CCS(=O)(=O)N1CCN(C(=O)COc2ccc(-c3ccccc3)cc2)CC1 was read as H5N1 antiviral 1.4.
Screening Cc1ccc(NC(=O)CCn2cccc2)cc1F returned H5N1 antiviral inactive.
Screening COc1cccc(C(=O)NC(=S)Nc2ccc(N3CCCC3)cc2)c1 returned H5N1 antiviral inactive.
Screening Cc1ccc(-c2noc(CSc3nnc(-c4ccncc4)n3-c3ccc(F)cc3)n2)cc1 returned H5N1 antiviral 0.6.
CC1CCCCN1C(=O)COc1ccc(NC(=O)c2ccco2)cc1 (configuration not stated) was read as H5N1 antiviral inactive.
Screening CCCCOc1ccc(-c2nc(=S)[nH][nH]2)cc1 returned H5N1 antiviral inactive.
`CCOc1cc(S(=O)(=O)N2CCOCC2)ccc1F` gave H5N1 antiviral 0.9.
Screening O=C(OCC(=O)c1ccc([N+](=O)[O-])cc1)/C(=C\c1ccc(Cl)cc1)NC(=O)c1ccccc1 returned H5N1 antiviral 0.1.
For CC(=O)N1c2ccccc2C(C)CC12CCCCC2 (configuration not stated) the results were H5N1 antiviral 0.3.
